Screening data from PubChem.
Gli-Sufu block = Gli-Sufu pathway antagonists, primary screen, luciferase luminescence, Sufu-KO-LIGHT cells, uHTS; inhibition, % at 5 µM; actives 0.74% (n = 340,000); Sufu-KO-LIGHT fibroblasts, Gli luciferase reporter luminescence;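 active = inhibition above about 55%, limit read from the data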;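 note: 0% = DMSO-treated cells and 100% = wells with medium but no cells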
A3A deaminase = APOBEC3A ssDNA deaminase inhibitors, primary screen, selectivity assay for APOBEC3G inhibitor project, biochemical, FAM/TAMRA oligo cleavage fluorescence. recombinant A3A, FAM/TAMRA ssDNA deamination fluorescence. inhibition, % at 20 µM. DNA dC->dU-editing enzyme APOBEC-3A (Homo sapiens), P31941. actives 0.41% (n = 330,000);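 active = at least 40% inhibition at 20 µM here, with at most 30% in a related deaminase screen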;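 note: plate controls were A3A with DMSO for no effect and wells lacking A3A enzyme for full effect; some results filed as inactive read as strong as hits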
Target sequence (P31941 whole entry, looked up): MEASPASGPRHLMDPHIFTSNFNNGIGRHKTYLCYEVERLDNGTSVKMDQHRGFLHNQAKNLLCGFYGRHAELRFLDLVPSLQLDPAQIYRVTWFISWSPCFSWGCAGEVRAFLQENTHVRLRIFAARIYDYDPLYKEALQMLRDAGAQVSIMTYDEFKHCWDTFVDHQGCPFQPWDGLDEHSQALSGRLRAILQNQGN
EBI2 antag = EBI2 receptor antagonists, beta-arrestin recruitment, primary screen, cell-based, luminescence, 7a,25-OHC stimulation, uHTS; 7a,25-OHC stimulated; G-protein coupled receptor 183 (Homo sapiens), P32249; inhibition, % at 5 µM; actives 0.81% (n = 360,000); AID 651636, 2012; in the data active = inhibition above about 38%;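 note: enzyme fragment complementation signal reports receptor beta-arrestin coupling in cells; 0% = agonist plus DMSO wells and 100% = wells without agonist; some results beyond the cut were filed as inactive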
Target sequence (P32249 whole entry, looked up, the tested form may be a part): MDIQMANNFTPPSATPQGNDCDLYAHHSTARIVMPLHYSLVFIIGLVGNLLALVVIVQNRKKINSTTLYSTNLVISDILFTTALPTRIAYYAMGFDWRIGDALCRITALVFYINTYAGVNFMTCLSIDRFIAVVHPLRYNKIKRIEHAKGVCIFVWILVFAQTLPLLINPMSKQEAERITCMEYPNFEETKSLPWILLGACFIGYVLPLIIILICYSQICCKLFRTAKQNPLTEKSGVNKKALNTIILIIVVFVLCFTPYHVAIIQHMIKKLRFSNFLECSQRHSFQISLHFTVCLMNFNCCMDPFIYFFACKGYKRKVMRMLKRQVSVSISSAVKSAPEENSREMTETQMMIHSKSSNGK
GRIN3A LBD mod = binders of NR3A ligand-binding domain, primary screen, biophysical, differential scanning fluorimetry, uHTS. Tm shift relative to glycine control, % at 25 µM. NR3A LBD differential scanning fluorimetry, Tm shift; 0% = protein alone, 100% = glycine-bound protein. actives 2.5% (n = 340,000). AID 1259313, 2017;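 active = melting temperature shift of at least 10% of the positive control shift, at one fixed dose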
APOBEC3G inh = APOBEC3G DNA deaminase inhibitors, primary screen, biochemical, fluorescence, single-stranded DNA substrate, uHTS; DNA dC->dU-editing enzyme APOBEC-3G (Homo sapiens), Q9HC16; recombinant A3G, ssDNA deamination FAM/TAMRA fluorescence; inhibition, % at 20 µM; actives 0.28% (n = 330,000); AID 493012, 2011;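 active = inhibition of at least 40% at 20 µM, with no more than 30% in the related APOBEC3A deaminase screen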;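 note: plate controls were DMSO wells with A3G for no effect and wells lacking A3G enzyme for full effect; some compounds called inactive have numbers as strong as hits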
Target sequence (Q9HC16 whole entry, looked up): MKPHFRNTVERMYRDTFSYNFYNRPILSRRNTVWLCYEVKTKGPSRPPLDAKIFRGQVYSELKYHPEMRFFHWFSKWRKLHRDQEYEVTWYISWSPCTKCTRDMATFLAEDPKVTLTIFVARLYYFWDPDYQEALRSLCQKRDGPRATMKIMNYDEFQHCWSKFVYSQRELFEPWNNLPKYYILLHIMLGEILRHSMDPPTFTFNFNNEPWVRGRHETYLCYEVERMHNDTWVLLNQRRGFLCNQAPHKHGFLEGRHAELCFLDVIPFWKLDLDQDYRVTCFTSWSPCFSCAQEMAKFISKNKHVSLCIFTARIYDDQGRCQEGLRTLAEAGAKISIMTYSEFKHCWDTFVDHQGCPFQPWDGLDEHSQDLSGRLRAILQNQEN
MPTP block = mitochondrial permeability transition pore inhibitors, primary screen, biochemical, isolated mouse mitochondria, absorbance | AID 602449, 2012 | actives 1.4% (n = 360,000) | Ca2+ swelling absorbance, 30 min | inhibition, % at 10 µM;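 active = inhibition of 50% or more, scaled per plate between neutral and stimulator controls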;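 note: 0% = DMSO wells given calcium and 100% = 1 mM EGTA wells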
An asterisk follows results filed as active; . = no result given. Not all compounds are listed; the hit share may differ from the screen's.

Values run as follows: Gli-Sufu block, A3A deaminase, EBI2 antag, GRIN3A LBD mod, APOBEC3G inh, MPTP block
> COc1ccc(OC)c(-n2c(-c3cc(-c4ccc(F)cc4)n[nH]3)n[nH]c2=S)c1
 : -4, -2, 5, -2, -2, 4.7
> COc1ccccc1NC(=O)C(C)OC(=O)/C(=C/c1ccccc1)NC(C)=O (stereo not given)
 : -8, 3, 6, -2, -3, -3.3
> O=C(CSc1ccc(-c2ccco2)nn1)Nc1ccccc1
 : -28, 3, -14, 0, 3, -1.2
> CCN1CCN(c2ncnc3c2c(-c2ccccc2)cn3-c2ccc(F)cc2)CC1
 : ., 0, 40, -9, -3, 13
> CC(C)C1Cc2c(sc(NC(=S)NC(=O)c3ccccc3)c2C#N)CO1 (stereo not given)
 : -11, 1, 1, 2, 4, 24
> Clc1nn2cnnc2c2ccccc12
 : 4, -2, -14, 1, -9, -1.7
> O=C(N/N=C/c1ccccn1)c1cc(-c2ccccc2)nc2ccccc12
 : 48, -1, 35, 1, 1, -3.0
> Oc1c(C=NCc2ccncc2)sc2ccccc12
 : -22, 1, ., 1, 0, .
> CCCOc1cccc(C(=O)NC(=S)Nc2cccc(C(F)(F)F)c2)c1
 : 5, 0, 13, -2, -6, 13
> Cc1ccc(CN(C)C(=O)COc2ccc(S(=O)(=O)N3CCCC3)cc2[N+](=O)[O-])c(C)c1
 : -2, 1, -2, -3, -6, 1.2
> CCC(=O)N1CCC1(C)C(=O)Nc1ccc(C)c(C)c1 (stereo not given)
 : ., ., -9, ., ., 0.1
> Cc1nc2ccc(C(=O)O)cc2nc1C
 : -3, 1, -11, 0, -2, 0.8
> COC(=O)C1=NN(c2ccc(OC)cc2)C2C(=O)N(c3ccccc3OC)C(=O)C12 (stereo not given)
 : -2, 0, -11, 1, -1, 2.0
> CN1CCN(c2oc(/C=C/c3ccccc3)nc2C#N)CC1
 : -5, 0, 3, 1, 11, 0.1
> CNc1ncnc2c1ncn2-c1ccccc1
 : -25, ., 0, 0, ., -0.6
> O=C(OC1CCOC1=O)c1cccc(S(=O)(=O)Nc2cccc(Cl)c2)c1 (stereo not given)
 : -7, -3, -4, -2, -5, 0.7
> CN1C(=O)C2C=CC1C1C(=O)N(c3ccccc3)C(=O)C21 (stereo not given)
 : -121, -2, 0, 1, -5, 0.9
> CCc1ccc(NCc2cc3c(C)nn(-c4ccccc4)c3[nH]c2=O)cc1
 : -2, -4, 8, -1, -3, 1.8
> N#CC(c1ccccn1)(c1ncc(C(F)(F)F)cc1Cl)N1CCOCC1 (stereo not given)
 : 7, 6, -3, 1, 0, 0.3
> COCCOC(=O)C(C#N)c1nc2ccccc2nc1N1CCCC1 (stereo not given)
 : 8, -4, 8, -1, -12, -1.3
> COc1ccc(NC(=O)CSc2nc3c([nH]c4ccccc43)c(=O)n2C)c(OC)c1
 : 9, -4, 0, 3, -7, 1.2
> C/C(=N/NC(=S)Nc1ccccc1)c1ccc2c(c1)OCO2
 : -2, -6, 3, -8, -10, -0.4
> O=C(NC1CCC(O)CC1)c1cccnc1Sc1ccccc1Cl (stereo not given)
 : 0, -6, -1, 2, -6, -0.7
> COc1ccc(-c2csc3ncnc(N4CCN(CCO)CC4)c23)cc1
 : -14, -4, -3, -2, -7, 0.5
> COc1cccc(OC)c1C(=O)NNC(=O)c1ccccc1-n1cccc1
 : 3, 0, -3, -3, -8, 0.9
> O=c1c(NCCc2ccc(Cl)cc2)c(-c2ccccc2)c1=O
 : 2, 1, 1, 7, -1, 1.2
> Cc1ccc(C(=O)CSc2nc(O)cc(=O)[nH]2)cc1C
 : 0, -6, -7, 0, -6, 0.2
> COc1ccccc1/C=C1\C(=O)Nc2ccccc21
 : -36, -6, 5, 2, -2, -0.4
> C(=NNc1ccc2ccccc2n1)c1ccccn1
 : ., ., 15, ., ., -0.7
> CCN1CCCC1CNS(=O)(=O)c1ccc(F)c(Cl)c1 (stereo not given)
 : 8, 0, 3, 2, -4, 0.3

Profiles as entered above. Order of screens: Gli-Sufu block | A3A deaminase | EBI2 antag | GRIN3A LBD mod | APOBEC3G inh | MPTP block
Cc1nc2ccc(C(=O)O)cc2nc1C in the list: -3 | 1 | -11 | 0 | -2 | 0.8
CCCOc1cccc(C(=O)NC(=S)Nc2cccc(C(F)(F)F)c2)c1 in the list: 5 | 0 | 13 | -2 | -6 | 13

(more compounds)
Values run as follows: Gli-Sufu block, A3A deaminase, EBI2 antag, GRIN3A LBD mod, APOBEC3G inh, MPTP block
> Cn1nnc(NC(=S)NC(=O)c2ccc(-c3ccc(Br)cc3)o2)n1
 : -5, 0, 10, -2, -4, 1.6
> COc1ccc(-c2nnc(SCc3ccc(C(=O)O)cc3)n2C)cc1OC
 : 2, -1, 2, 0, 18, 0.3
> COc1ccccc1N1C(=O)C2C(C(=O)c3ccccc3)=NN(c3ccc(C)cc3)C2C1=O (stereo not given)
 : 3, -5, -12, -1, -11, -0.3
> COc1ccc(NC(=S)NNC(=O)COc2ccc(Cl)cc2Cl)cc1
 : 6, -2, -3, -4, -4, 4.2
> Cc1cccc(-c2nnc(NC(=O)c3ccc(Cl)cc3)o2)c1
 : -3, 0, 3, -12, 0, -32
> COc1ccc2c(c1)/C(=C\c1cccc(/C=C3/C(=O)Nc4ccc(OC)cc43)n1)C(=O)N2
 : 8, ., 50*, -3, ., -0.7
> Cc1n[nH]c(=S)n(NC(=O)CC(=O)Nn2c(=S)[nH]nc(C)c2=O)c1=O
 : -16, -12, 44*, -2, -18, -1.1
> COc1ccc(C=CC(C)=NNC(=O)c2ccncc2)cc1
 : -51, ., -12, -2, ., -2.6
> Cn1c(-c2ccccc2)c(C#Cc2ccc(N)cc2)c2ccccc21
 : 8, 1, 10, -3, -3, 1.4
> CCOc1cccc(C(=O)NC(=S)Nc2cccc(C)c2)c1
 : -46, -4, 5, -9, -6, -0.5
> CCNC(=O)CNC(=O)c1nn(Cc2ccccc2)c(=O)c2ccccc12
 : -10, 1, 1, 0, -7, 0.7
> Nc1ccc(C(=O)OC2CCOC2=O)cc1[N+](=O)[O-] (stereo not given)
 : 10, 3, -9, -8, -6, -0.2
> Cc1ccc(C(=O)COC(=O)c2ccc(-c3cnc4ccccc4n3)cc2)cc1C
 : -24, 3, 4, -5, 3, 0.8
> COc1ccc(N2C(=O)CC(Sc3nnc(-c4ccccc4)o3)C2=O)cc1 (stereo not given)
 : 6, -2, 6, 2, -5, 11
> Oc1oc(-c2ccco2)nc1C=Nc1ccccc1
 : -10, -5, -1, 1, -2, 1.2
> COc1ccc(/C=C/C2=Nc3ccccc3NC(C)(C)C2)cc1OC
 : -17, -3, 7, -4, 0, 0.0
> COc1cccc(N=CC2=C(O)CC(C)(C)CC2=O)c1
 : 25, -5, 4, -3, -8, 0.2
> COc1ccc(OC)c(CN(CCCN2CCOCC2)S(=O)(=O)c2ccc(NC(C)=O)cc2)c1
 : 1, 0, -4, -1, 0, -0.6
> CSc1ccc(-c2cc(=O)c3ccccc3o2)cc1
 : -42, -8, 11, -1, -8, 2.3
> CC(C)(C)c1ccc(C(=O)NC(=S)Nc2sc3c(c2C#N)CCC3)cc1
 : 0, 6, 16, 10, 0, 35
> COc1ccccc1NC(=O)C1=C(C)Nc2nnnn2C1c1cccc(C)c1 (stereo not given)
 : 2, 2, 4, -5, 1, 0.9
> C/C(=N\NC(=O)c1ccccn1)C12CC3CC(CC(C3)C1)C2
 : 25, 1, -6, 1, 0, 1.6
> O=C(CCc1ccccc1)NCCSc1ccccc1
 : -38, 0, 20, 0, -2, -0.9
> C/C(=N\Nc1ccc(Cl)cc1)c1c(O)cc(C)oc1=O
 : 0, 1, 0, 1, 33, -2.1
> O=C(CSc1nnc(SCc2ccccc2)s1)N/N=C/C=C/c1ccccc1[N+](=O)[O-]
 : 1, 2, 0, -5, 3, 16
> O=C(NC(=S)N1CCN(c2ccc(C(F)(F)F)cc2[N+](=O)[O-])CC1)c1cccs1
 : 0, -5, 7, -5, -6, 46
> Cc1cccc([N+](=O)[O-])c1NC(=O)COC(=O)C1CCCO1 (stereo not given)
 : 5, 1, -16, -1, 0, -0.5
> CC1=C(C(=O)Nc2ccccc2)C(c2cccnc2)n2ncnc2N1 (stereo not given)
 : 5, 0, -7, -1, -2, 1.8
> CCOC(=O)c1cc([N+](=O)[O-])cc([N+](=O)[O-])c1Sc1ncnc2nc[nH]c12
 : 10, ., -44, -2, ., -0.8
> O=C(N/N=C/c1ccoc1)c1cc(Br)ccc1O
 : -1, 37, 6, -1, 18, -2.3

Further compounds:
Values run as follows: Gli-Sufu block, A3A deaminase, EBI2 antag, GRIN3A LBD mod, APOBEC3G inh, MPTP block
> O=C(Nc1ccc2oc(=O)ccc2c1)c1ccc(-c2ccccc2[N+](=O)[O-])o1
 : -3, 0, -5, 30*, -7, 6.3
> CSc1ccccc1NC(=O)COC(=O)CCC(=O)c1ccc(F)cc1
 : -16, -3, -6, 3, -6, -0.3
> Cc1nc(NC(=O)c2ccccc2)sc1-c1csc(NCc2ccco2)n1
 : -17, -2, -3, 0, -2, 0.5
> Cc1ccc2sc(NC(=O)C3CC3)nc2c1C
 : -21, -5, 2, 7, -9, -0.5
> CC(C)[C@H](NC(=O)N1CCn2c1nc1ccccc12)C(=O)N1CCCCC1
 : -7, -4, 4, 2, -7, 0.1
> C=C(C)Cn1c(C2CC(=O)N(Cc3ccccc3)C2)nc2ccccc21 (stereo not given)
 : 8, -1, 3, -1, -4, -0.9
> Brc1ccccc1-c1nnc(SCc2nc3ccccc3s2)o1
 : -8, -2, -3, 0, -10, -1.6
> Cc1ncccc1C(=O)N1CCCC(CNC(=O)C2(c3ccc(Cl)cc3)CC2)C1 (stereo not given)
 : 3, 1, -4, 0, -4, 0.5
> Cc1cccc(C)c1Nc1nnc(SCC(=O)Nc2sccc2C#N)s1
 : -3, 2, -5, -6, 6, 1.9
> COc1ccccc1NC(=O)C(=O)N(c1cccnc1)C(C(=O)NC(C)(C)C)c1ccccc1F (stereo not given)
 : 1, 0, 2, -1, -6, -0.4
> O=C(Cc1ccccc1)Nc1cccc(N2C(=O)C=CC2=O)c1
 : 5, ., -2, 1, ., 15
> COc1cc([N+](=O)[O-])ccc1NC(=S)NNC(=O)c1ccc2c(c1)OCO2
 : -27, 1, 23, 2, -2, 16
> Cc1ccc(NC2SC(=O)N(CC(=O)O)C2=O)cc1 (stereo not given)
 : 1, -4, -12, 1, -5, -0.7
> Cc1ccc(C(=O)C=CNNC(=O)c2ccccc2)cc1
 : -6, 0, -5, 0, -4, 0.2
> Cc1ccc(-n2[nH]c(C)c(/C=N/N3C(=O)c4cccc5cccc(c45)C3=O)c2=O)cc1
 : -8, -2, 15, -7, -1, -1.3
> N#CC(c1ccncc1)(c1ncc(C(F)(F)F)cc1Cl)N1CCOCC1 (stereo not given)
 : -6, 0, 1, -1, -1, 1.0
> Cc1ccc(-n2cc(C(=O)c3ccc(N4CCN(C)CC4)cc3)nn2)cc1Cl
 : -2, -3, 5, -1, -11, -0.9
> CC(=O)C(=Cc1ccc(O)cc1)C(C)=O
 : 4, ., -9, -2, ., -0.1
> N#C/C(=C\c1cccc([N+](=O)[O-])c1)C(=O)NCc1ccc(Cl)cc1
 : 6, ., 17, -11, ., 9.6
> COC(=O)C1=NN(c2ccc(Cl)cc2)C2C(=O)N(c3ccccc3OC)C(=O)C12 (stereo not given)
 : -1, 3, -4, -2, -8, -1.7
> COc1ccccc1-n1c(-c2ccc(NS(C)(=O)=O)cc2)n[nH]c1=S
 : 5, -3, -7, 1, 20, -1.6
> C=CCSc1n[nH]c(-c2cccs2)n1
 : -3, -2, -14, 1, -1, -1.1
> COc1ccc(-c2nnc(-c3ccc(N(C)C)cc3)o2)cc1
 : -75, -6, 7, 0, -6, 0.6
> COc1ccc(-c2cc(C(=O)OCC(=O)c3ccc(C)c([N+](=O)[O-])c3)c3ccccc3n2)cc1
 : -19, -1, 6, -7, -7, 0.4
> O=C(Oc1ccc(Cl)c2cccnc12)c1ccco1
 : 9, 1, 58*, 0, -1, -2.6

Structures shown so far that have a tert-butyl group (2):
Values run as follows: Gli-Sufu block, A3A deaminase, EBI2 antag, GRIN3A LBD mod, APOBEC3G inh, MPTP block
> CC(C)(C)c1ccc(C(=O)NC(=S)Nc2sc3c(c2C#N)CCC3)cc1
 : 0, 6, 16, 10, 0, 35
> COc1ccccc1NC(=O)C(=O)N(c1cccnc1)C(C(=O)NC(C)(C)C)c1ccccc1F (stereo not given)
 : 1, 0, 2, -1, -6, -0.4
